2A StopGo – lowers the luciferase signal of an FMDV 2A StopGo reporter; 410,000 tested, 1.2% active; Potency, µM (doses to about 57.9 µM), inactives show at the highest dose signal change, negative = less light; human cells with a luciferase reporter of 2A StopGo recoding; control for the full effect not named in the record; AID 1159524; active = well fitted falling curve with a large enough effect; inconclusive = small, poorly fitted or top-dose-only effect; inactive = no such curve, though single readings can be large or run the other way; tested in HEK293T cells; note: % is set by controls: 0 for no effect and ±100 for the full control effect; nearly all actives have a fitted effect of over 45% in size; luciferase light after 4 h
Marburg entry inh – blocks Marburg virus binding to or entry into cells | Marburg virus pseudotyped entry inhibition, cell reporter; control for the full effect not named in the record; about a third of the inactives were read at about 46 µM | Potency, µM (series often up to 37.8 µM), inactives show top-dose activity change, negative = inhibition, most hits filed as inhibitors | 300,000 tested, 1.8% active; active = well fitted inhibition curve with a large enough effect; inconclusive = small, poorly fitted or top-dose-only effect, or effect the other way; inactive = flat fitted curve, though single readings scatter; tested in HEK293 cells; about a fifth of its hits are not listed in these tables; note: % is set by controls: 0 for no effect and ±100 for the full control effect; luciferase read-out
Cruzain inh noDet – inhibitors of Trypanosoma cruzi cruzain without detergent | P25779 | 200,000 tested, 2.3% active | Potency, µM, inactives show max response, negative = inhibition, actives largely listed as inhibitors | purified cruzain, Z-FR-AMC fluorescence, no detergent | AID 1476;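 note: plate controls were enzyme without inhibitor for no effect and buffer without enzyme for full effect; nearly all actives have a fitted effect of over 40% in size; top concentration of the series not given in the record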
Target sequence (P25779 123-467 limits assumed): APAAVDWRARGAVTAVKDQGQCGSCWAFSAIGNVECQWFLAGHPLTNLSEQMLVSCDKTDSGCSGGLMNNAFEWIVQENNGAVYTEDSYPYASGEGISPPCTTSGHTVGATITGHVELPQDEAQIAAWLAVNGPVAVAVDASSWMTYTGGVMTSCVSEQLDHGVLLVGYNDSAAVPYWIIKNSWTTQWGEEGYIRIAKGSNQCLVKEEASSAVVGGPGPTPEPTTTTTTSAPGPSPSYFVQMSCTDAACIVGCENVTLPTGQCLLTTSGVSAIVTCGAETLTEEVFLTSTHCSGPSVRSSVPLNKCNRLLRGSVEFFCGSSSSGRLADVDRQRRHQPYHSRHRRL
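Purified cruzain at 1.5 nM, pre-incubated 15 min with compound at room temperature in 100 mM sodium acetate pH 5.5, 5 mM DTT, 0.00005% Triton X-100. Reaction started with 2 uM Z-FR-AMC; AMC fluorescence increase over 60 s gives rate.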
LASV entry inh – inhibitors of Lassa virus binding or cell entry; Potency, µM (highest dose often 37.9 µM), for inactives: top-dose activity change, negative = inhibition, hits mostly inhibitors; Lassa virus pseudotype entry inhibition, cell reporter; control for the full effect not named in the record; 300,000 tested, 1.2% active; AID 540256; active means well fitted inhibition curve with a large enough effect; inconclusive means small, poorly fitted or top-dose-only effect, or effect the other way; inactive means flat fitted curve, though single readings scatter; tested in HEK293 cells; note: % is set by controls: 0 for no effect and ±100 for the full control effect; nearly all actives have a fitted effect of over 50% in size; luciferase read-out
Cruzain inh Det – inhibitors of Trypanosoma cruzi cruzain with detergent. 200,000 tested, 0.43% active. Potency, µM, for the others: max response, negative = inhibition, most hits filed as inhibitors. AID 1478. purified cruzain, Z-FR-AMC fluorescence, 0.01% Triton;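 note: plate controls were neutral wells for no effect and buffer without enzyme for full effect; nearly all actives have a fitted effect of over 40% in size; top concentration of the series not given in the record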
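15 min RT preincubation of 1.5 nM cruzain with compound, then 2 uM Z-FR-AMC added; kinetic AMC fluorescence, 60 s delta. Triton X-100 0.01%, pH 5.5.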
NS1 inh – influenza NS1 inhibition | S. cerevisiae slowed by influenza A NS1, growth recovery by OD600 | Potency, µM (titrated, usually from 46.1 µM), without a hit: at the top dose activity, positive = more growth | 270,000 tested, 0.4% active; active means well fitted rising curve with a large enough effect; inconclusive means small, poorly fitted or top-dose-only effect; inactive means no such curve, though single readings can be large or run the other way; note: nearly all actives have a fitted effect of over 50% in size
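In this qHTS, NS1 from influenza A is expressed in budding yeast, where it slows growth. Cells are switched from glucose to 2% galactose medium (pH 6.0, -URA), treated with compound, and growth recovery is read at OD600.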
RE007 growth inh – less growth of the S. pombe RE007 Vpr strain | S. pombe RE007 Vpr strain, BacTiter-Glo ATP luminescence, 24 h; control for the full effect not named in the record | Potency, µM (titrated, usually from 92.2 µM), for the others: top-dose activity change, negative = less growth | 360,000 tested, 0.21% active | AID 651644; active = well fitted falling curve with a large enough effect; inconclusive = small, poorly fitted or top-dose-only effect; inactive = no such curve, though single readings can be large or run the other way;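 note: % is set by controls: 0 for no effect and ±100 for the full control effect; nearly all actives have a fitted effect of over 50% in size; the assay follows cell death caused by Vpr and the record does not say whether a fall means rescue or toxicity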
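Fission yeast RE007 carrying one integrated HIV-1 vpr copy, seeded at OD 0.01 in PMG+AL medium with 23 nL pinned compound. Grown 24 h at 30 degrees; viability read by BacTiter-Glo luminescence after 5 min.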
SARS PLP yeast – inhibitors of SARS-CoV papain-like protease in yeast. AID 485353. 330,000 tested, 0.19% active. S. cerevisiae expressing SARS-CoV PLpro, growth rescue; control for the full effect not named in the record. Potency, µM (top dose mostly 32.9 µM), without a hit: at the top dose activity, positive = growth rescue; active means well fitted rising curve with a large enough effect; inconclusive means small, poorly fitted or top-dose-only effect; inactive means no such curve, though single readings can be large or run the other way; note: 0% is about no effect; nearly all actives have a fitted effect of over 55% in size; growth read by luminescence after 48 h
* hit, by the source's call; ? = inconclusive; / = not tested or not shown; [ ] = dose if it differs, or a comment. Unless noted, calls come from the whole dose curve; as a rule, active = well fitted curve in the direction sought with a large enough effect; inconclusive = small, poorly fitted or top-dose-only effect, or another doubt; inactive = no such curve, though single readings can be large; an effect the other way counts as inactive or inconclusive. Potency is the fitted concentration of half-maximal effect.

Structure	2A StopGo	Marburg entry inh	Cruzain inh noDet	LASV entry inh	Cruzain inh Det	NS1 inh	RE007 growth inh	SARS PLP yeast
Cc1nc2c(F)c(F)c(C(F)(F)F)c(F)c2[nH]1	-24%	-9%[46.1 µM]	6%	-17%	-5.5%	-198%	-14%	-32%
CC(C)c1cc[n+](-c2nc([O-])sc2C=O)cc1	3%	18%	-13%	5%	-1.6%	2%	-17%	1%
Cc1ccc(S(=O)(=O)Nc2ccc3nc(-c4ccc(F)cc4)oc3c2)cc1	-11%	7%[46.1 µM]	-13%	5%[46.1 µM]	-9.0%	/	/	/
O=C(COc1ccc(Cl)cc1Cl)OCC(=O)N1CCCc2ccccc21	-4%	0%	3%	/	-7.2%	-12%	4%	-30%
CCOC(=O)N1CCN(C(=O)c2c[nH]c3ccc(S(=O)(=O)N(C)c4ccccc4C)cc3c2=O)CC1	?	8%[46.1 µM]	/	?	/	-19%	-7%	-4%
CC(O)c1nc2ccccc2n1CCCc1ccccc1 (centres undefined)	-21%	/	/	/	/	26%	-16%	?
COC(=O)c1ccc(Cn2cnc3c(Cl)ncnc32)cc1	-14%	?	/	10%[46.1 µM]	/	/	7%	/
O=C(CSc1nc2c(c(=O)n1-c1ccc(F)cc1)SCC2)NCc1ccco1	-4%	1%	-5%	-13%	-5.6%	-3%	13%	3%
N#Cc1c(N)nc2c(c1N)CC(=O)N2c1ccc(Cl)cc1	29%	-5%	-5%	?	-6.3%	15%	-5%	8%
Cc1cnc(NC(=O)CSc2nnc(COc3ccccc3)o2)s1	6%	-9%[46.1 µM]	/	30%	/	8%	?	4%
O=C(NCC(c1ccccc1)N1CCCC1)C1CCN(C(=O)Nc2ccccc2)CC1 (centres undefined)	5%	-8%[46.1 µM]	/	-9%	/	/	1%	3%
CCOC(=O)Nc1nnc(/C=C/c2ccc(OC)cc2)s1	11%	3%	-14%	1%	-4.3%	0%	-4%	-19%
COc1ccc(CN2CCNC(=O)C2CC(=O)N(C)CCCN2CCOCC2)cc1C (centres undefined)	-3%	/	/	/	/	6%	-10%	?
Cc1cccc(OC(=O)c2cncc(Br)c2)c1	-17%	15%	/	3%	/	/	-6%	-1%
O=C(CSc1nc2ncccc2[nH]1)c1ccc(F)cc1	9%	11%	-14%	-1%	-1.3%	-8%	-12%	-2%
Cc1ccc(S(=O)(=O)Nc2cccc3ncccc23)s1	28µM*	10µM*	9%	8.9µM*	-0.2%	-180%	?	-37%
COc1ccc(C(=O)N2CCCC(C(=O)N3CCN(c4ccccc4)CC3)C2)cc1 (centres undefined)	-7%	-1%	/	12%	/	0%	-8%	1%
O=C(Nc1nc(-c2ccc3c(c2)OCCO3)cs1)c1ccc(S(=O)(=O)N2CCCCC2)cc1	/	?	13µM*	?	-0.7%	6%	-9%	5%
CC(C)CC(N)C(=O)OCc1ccc([N+](=O)[O-])cc1 (centres undefined)	3%	-20%	/	1%	/	-1%	-12%	0%
CC(=O)N(C)Cc1ccc(C(=O)CCl)cc1	?	-1%[46.1 µM]	/	-9%	/	/	11%	7.9µM*
COc1cccc(CNC(=O)COC(=O)CCS(=O)(=O)c2ccc(C)cc2)c1	-19%	20%	/	1%	/	/	8%	0%
CC1CCC2C(=O)N(c3ccccc3OC(=O)c3ccccc3F)C(=O)C2C1 (centres undefined)	-3%	7%[46.1 µM]	/	?	/	-2%	38%	0%
C#CCOc1ccc2c(c1)c(C(C)=O)c(C)n2Cc1ccccc1	?	?	/	?	/	1%	38%	0%
COc1ccc(NC(=O)C2CCN(S(C)(=O)=O)CC2)c(OC)c1	-11%	/	/	/	/	2%	18%	2%
CC(C(=O)O)N1C(=O)c2ccccc2C1=O (centres undefined)	-10%	1%	11%	0%	-2.4%	2%	-1%	-7%
COc1ccc(-n2c(=O)c3c4c(sc3n3c(=S)[nH]nc23)CCCC4)cc1	-18%	25%	22%	2%	-12%	?	-13%	-58%
O=C(NCc1ccc2c(c1)CCN2C(=O)c1ccncc1)c1cccc(F)c1	-20%	/	9%	-1%[46.1 µM]	-0.8%	/	/	/
CCN(CC)S(=O)(=O)c1csc(C(=O)Nc2ccccn2)c1	14%	17%	15%	8%	-0.4%	-18%	9%	1%
O=C(Nc1cccc(Cl)c1Cl)c1ccccc1NC(=O)C1CC=CCC1C(=O)O (centres undefined)	21%	-14%[46.1 µM]	/	3%[46.1 µM]	/	28%	-12%	2%
CC(C)c1ccc(OCC(=O)Nc2cc(-c3nc4ncccc4o3)ccc2Cl)cc1	?	-24%[46.1 µM]	15%	/	0.2%	/	/	/
COCCCn1c(C23CC4CC(CC(C4)C2)C3)n[nH]c1=S	-12%	/	/	/	/	21%	10%	9%
CCCc1ncc(C(O)c2ccccc2OC)n1C (centres undefined)	-14%	16%[46.1 µM]	/	14%[46.1 µM]	/	/	-15%	-1%

3 structures out of the list, arranged by length of the SMILES, low to high:
Structure	2A StopGo	Marburg entry inh	Cruzain inh noDet	LASV entry inh	Cruzain inh Det	NS1 inh	RE007 growth inh	SARS PLP yeast
CCCc1ncc(C(O)c2ccccc2OC)n1C (centres undefined)	-14%	16%[46.1 µM]	/	14%[46.1 µM]	/	/	-15%	-1%
CC(C)c1ccc(OCC(=O)Nc2cc(-c3nc4ncccc4o3)ccc2Cl)cc1	?	-24%[46.1 µM]	15%	/	0.2%	/	/	/
COc1ccc(-n2c(=O)c3c4c(sc3n3c(=S)[nH]nc23)CCCC4)cc1	-18%	25%	22%	2%	-12%	?	-13%	-58%

(listing goes on)
Structure	2A StopGo	Marburg entry inh	Cruzain inh noDet	LASV entry inh	Cruzain inh Det	NS1 inh	RE007 growth inh	SARS PLP yeast
COc1ccc(-c2cc(=O)oc3cc(OCc4nn[nH]n4)ccc23)cc1	0%	3%	-12%	-2%	-11%	-16%	43%	2%
O=C(N/N=C/c1cn(-c2cccs2)nc1-c1ccccc1)c1ccc(O)cc1	-25%	?	-21%	?	-5.2%	16%	1%	-27%
NS(=O)(=O)c1ccc(NC(=O)CNC(=O)c2ccc3c(c2)OCO3)cc1	-4%	-4%[46.1 µM]	/	-11%[46.1 µM]	/	/	-17%	-1%
CCCc1nc2ccccc2n1CC(O)COc1ccc(NC(C)=O)cc1 (centres undefined)	-13%	0%[46.1 µM]	/	1%	/	-2%	1%	-1%
CN(C(=O)CC1C(=O)NCCN1Cc1cccc(F)c1F)C1CCOCC1 (centres undefined)	-8%	16%	/	0%	/	9%	-15%	?
C/C(=N\NC(=O)c1c(Br)c(C)nn1C)c1ccc(NC(=O)C(C)Oc2ccc(Cl)cc2C)cc1 (centres undefined)	0%	?	8%	?	1.5%	6%	13%	2%
Cc1cc(N)n(-c2nc(-c3cccnc3)nc3ccccc23)n1	?	?	7%	-15%	-2.2%	16%	-19%	1%
Cc1cc(Nc2cccc(F)c2)n2c(n1)nc1ccccc12	/	6%	2%	-12%	-3.3%	4%	-10%	4%
NNC(=O)c1ccc(CSc2nc3ccccc3[nH]2)cc1	22%	7%[46.1 µM]	/	?	/	10%	23%	1%
COc1ccccc1C1C(C(=O)Nc2ccccc2)=C(C)Nc2nc(-c3ccccc3)nn21 (centres undefined)	-30%	-9%[46.1 µM]	?	-1%[46.1 µM]	-6.2%	/	/	/
CNC(=S)Nc1ccc(C(N)=O)cc1	-1%	-1%[46.1 µM]	/	1%	/	-1%	-2%	1%
O=C(COc1ccccc1F)N1CCN(CCN2C(=O)c3cccc4cccc(c34)C2=O)CC1	?	-20%	/	-24%	/	8%	-2%	6%
CCOC(=O)c1c(/N=C/c2cc(C)ccc2O)sc2c1CCC2	-9%	23%	-10%	0%	-4.6%	27%	-15%	9%
CN(CC(=O)Nc1ccc(Cl)c(Cl)c1)C(=O)C1CCC1	-12%	-4%	/	-19%	/	/	-15%	1%
COc1ccccc1CNC(=O)c1ccccc1NC(=O)c1nsc2ccccc12	14%	/	-17%	1%[46.1 µM]	2.9%	/	/	/
O=C1C2C3C=CC(C3)C2C(=O)N1c1ccc2c(c1)CCC2 (centres undefined)	10%	14%	-4%	16%	1.5%	?	-30%	4%
c1nc(NC2CCCCCC2)c2[nH]cnc2n1	-9%	19%	-15%	6%	1.1%	10µM*	0%	14%
O=C(Nc1cccc(F)c1)C1CCN(C(=O)NCc2ccccc2)CC1	-5%	-3%[46.1 µM]	/	5%[46.1 µM]	/	1%	-17%	1%
Cc1ccc(CCNC(=O)CCS(=O)(=O)Cc2ccc(C)cc2)cc1	-8%	/	/	/	/	5%	-8%	0%
O=C(CSc1nc(N2CCOCC2)nc(N2CCOCC2)n1)Nc1ccc([N+](=O)[O-])cc1	-14%	3%	/	-16%	/	-15%	-21%	1%
CCN(c1ccc(OC)cc1)S(=O)(=O)c1nnc(NC(=O)c2ccccc2C)s1	2%	/	-6%	14%[46.1 µM]	-1.8%	/	/	/
CN(Cc1c[nH]c2ccccc12)C1CCCCC1	-10%	0%	7%	-16%	-3.9%	0%	-8%	-30%
CS(=O)(=O)N1CCN(c2ccc(NC(=O)c3cccnc3Cl)cc2)CC1	/	-1%	5%	0%	6.9%	5%	-10%	0%
O=C(COC(=O)c1n[nH]c2ccccc12)NC(=O)NC12CC3CC(CC(C3)C1)C2	-13%	?	?	?	-1.9%	-2%	11%	-15%
COc1ccc(C(=O)NCCOc2ccccc2Cl)c(OC)c1OC	47%[activator]	-5%	/	/	/	-10%	2%	2%
COc1ccccc1C(=O)N/C(=C/c1ccc(Br)cc1)C(=O)N1CCCC1	6%	-29%[46.1 µM]	/	7%	/	/	-12%	-3%
CCOC(=O)c1c(C)[nH]c(C)c1S(=O)(=O)N(C)CC(=O)Nc1cccc(C(F)(F)F)c1	-9%	/	11%	-2%[46.1 µM]	-1.0%	/	/	/
COc1ccccc1N(CCOc1ccccc1)S(=O)(=O)c1ccccc1	7%	?	/	20%[46.1 µM]	/	/	1%	-9%
Cc1ccnc(NC(=O)CNC(=O)c2ccc(Br)o2)c1	18%	16%[46.1 µM]	/	4%	/	/	1%	/
